# Calb biofilm kill: clotrimazole potentiators killing C. albicans biofilm, primary screen, 4-compound mixtures; C. albicans biofilm persisters + clotrimazole, fluorescence viability; primary screen in compound mixtures of four per well; inhibition, % at 7.6 µM; 120,000 tested, 0.02% active; AID 1242, 2008;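 active means inhibition above 30.3% in the primary screen of four-compound pools, then above 30% when the compound was retested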;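 further: compounds exposed to preformed 24 h biofilms for 48 h; the number belongs to the whole pool; some results filed as inactive read as strong as hits; inactives centre near 12; 0% = biofilm with clotrimazole alone and 100% = kill control; retested singly at about 60 µM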
#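 Probe or stimulus – Clotrimazole 50 µg/mL co-treatment · System – C. albicans biofilms · Schedule – 24 h biofilm formation, then 48 h compound exposure, 37 °C · Evaluation – percent inhibition of biofilm viability · Technique – 2-h Alamar Blue fluorescence, 535/590 nm excitation/emission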
# The depositor's hits bear a star. These rows are one share of the data; the hit share may differ from the screen's.
SMILES,Calb biofilm kill
CC(=O)NC(c1ccccc1)c1c(O)ccc2ccccc12 (configuration not stated),-5
C=CCn1cc(C(=O)OCC)c(=O)c2ccc(F)cc21,4
CC(Oc1ccc(F)cc1)C(=O)NN (configuration not stated),10
O=C1CN(C(=O)COc2ccccc2F)c2ccccc2N1,15
C=CCNc1nc2c(c(=O)n(C)c(=O)n2C)n1CC(=C)C,10
CN(C)c1ccc(C(CNC(=O)c2ccc(C#N)cc2)c2c[nH]c3ccccc23)cc1 (configuration not stated),19
CC(=O)N(C1=C(N)C(=O)c2ccccc2C1=O)C(C)C,9
O=C(COC(=O)c1cccnc1Cl)NCCC1=CCCCC1,12
COc1cc(OC)c(NC(=S)NCc2ccccc2)cc1Cl,0
O=C(CC1C(=O)N(Cc2ccccc2)C(=S)N1CCN1CCOCC1)Nc1ccc(F)cc1 (configuration not stated),17
O=C(O)c1ccc(N2CCOCC2)c(N2C(=O)C3C4C=CC(C4)C3C2=O)c1 (configuration not stated),17
Cc1ccc2nc(NCc3ccccc3)c(C#N)cc2c1,3
Cc1ccc(-n2nnnc2SCC(=O)NC(C(=O)O)(c2ccccc2)c2ccccc2)cc1C,1
COc1ccc(NC(=O)c2ccc(-n3cncn3)c([N+](=O)[O-])c2)cc1,3
O=C(O)CSc1nnc(-c2cccc(S(=O)(=O)N3CCOCC3)c2)n1-c1cccc(Cl)c1,3
CC(=O)c1cnc2c(-c3ccc(Cl)cc3)c(C)nn2c1C,14
CCN(CC)C(=O)CSc1nc2cc3c(cc2c(=O)n1Cc1ccc(OC)cc1)OCO3,14
CCN(C(=O)COc1ccccc1)C1CCCCC1,-1
Cc1cccc(COCC(Cc2ccccc2)N2CCN(C(=O)c3cccc(C)c3)CCC2=O)c1 (configuration not stated),13
CN(CC(=O)Nc1ccccc1Cl)CC(=O)Nc1ccccc1[N+](=O)[O-],7
CC(C)N(C(=O)C[n+]1ccsc1N)c1ccccc1,13
NS(=O)(=O)c1ccc(CNC(=O)CCSCCC(=O)NCc2ccc(S(N)(=O)=O)cc2)cc1,-1
CC1CC2=C(C(=O)O1)C(C)Nc1ccccc1N2 (configuration not stated),22
Cc1cc(C(=O)CN2C(=O)NC3(CCCCC3)C2=O)c(C)n1C,4
NC1=NC[C@H](CC2CCCCC2)N1CCc1cc(C(F)(F)F)cc(C(F)(F)F)c1,14
COc1ccc(C(=O)NNC(=O)c2ccncc2)cc1,7
CCN(CC)S(=O)(=O)c1ccc(C)c(NC(=O)COc2ccc(Br)cc2Cl)c1,8
O=c1cc(NS(=O)(=O)c2ccccc2)nc(SCc2ccc(Cl)cc2)[nH]1,16
Cc1cc(NC(=O)CCC(=O)N(CC(=O)NCC2CCCO2)c2ccccc2C)no1 (configuration not stated),17
COc1ccc(-c2nc(N)n(C(=O)c3ccc(C)cc3)n2)cc1,15

# Reprinted at random: 2 compounds from above.
SMILES,Calb biofilm kill
CCN(C(=O)COc1ccccc1)C1CCCCC1,-1
COc1cc(OC)c(NC(=S)NCc2ccccc2)cc1Cl,0

# Additional compounds
SMILES,Calb biofilm kill
Cc1cc(N(CC(=O)NC2CC2)S(C)(=O)=O)ccc1Br,9
CCN(CC)CCN1CCn2c3c(c4cc(C)ccc42)CCCC31 (configuration not stated),23
O=c1c(Cl)c(N2CCNCC2)cnn1C12CC3CC(CC(C3)C1)C2,8
COc1ccc(-c2ccnc(SCC(=O)N3CCN(c4ccccc4)CC3)n2)cc1,25
CC1CC(C)CN(S(=O)(=O)N2CCC(C(=O)NCCC3=CCCCC3)CC2)C1 (configuration not stated),-10
O=C(Cn1nnc2ccccc21)Nc1ccc([N+](=O)[O-])cc1,12
O=C(O)c1ccc(Nc2ncc([N+](=O)[O-])cc2[N+](=O)[O-])cc1,16
Nn1c(SCc2ccccc2F)nnc1-c1ccncc1,1
CC(C)N(C(=O)CO/N=C/c1cccc([N+](=O)[O-])c1)C(C)C,16
COc1cc2c(cc1OC)C1(CCCCC1)CN(C)C2,19
Cc1cc(F)ccc1NCc1ccccc1[N+](=O)[O-],8
O=C(COC(=O)CCc1nc2ccccc2c(=O)[nH]1)NCc1ccc(F)cc1,21
CC(=O)c1cccc(CN2CCN(Cc3ccc(F)cc3)C(CCO)C2)c1 (configuration not stated),15
COc1ccc(CC(=O)N2CCN=C2SCc2cccc([N+](=O)[O-])c2)cc1,15
COc1cc(OC)c2c(-c3ccccc3)cc(=O)oc2c1,23

# Of the compounds above, 2 have bromine:
SMILES,Calb biofilm kill
CCN(CC)S(=O)(=O)c1ccc(C)c(NC(=O)COc2ccc(Br)cc2Cl)c1,8
Cc1cc(N(CC(=O)NC2CC2)S(C)(=O)=O)ccc1Br,9

# The list continues.
SMILES,Calb biofilm kill
N=c1n(CCN2CCCCC2)c2ccccc2n1CC(=O)c1ccc(Cl)c(Cl)c1,13
NS(=O)(=O)c1ccc(CNC(=O)c2ccccn2)cc1,16
CCc1ccc(C2=NNC(=Nc3c(C)n(C)n(-c4ccccc4)c3=O)SC2)cc1,2
Cc1ccn2cc(CCNC(=O)C3CC=CCC3C(=O)O)nc2c1 (configuration not stated),23
O=C(Nc1cc(S(=O)(=O)N2CCOCC2)ccc1N1CCCC1)C1COc2ccccc2O1 (configuration not stated),3
COc1cc(NC(=O)c2cccc([N+](=O)[O-])c2C)ccc1NC(=O)c1ccco1,14
CC1(c2ccc(OCC#N)cc2)C=C(c2ccc(OCC#N)cc2)n2nc(C(F)(F)F)nc2N1 (configuration not stated),5
O=C(O)c1cccc(-n2cccc2/C=C2\NC(=O)N(Cc3ccc(F)cc3)C2=O)c1,-8
Cc1c(NS(=O)(=O)c2cc(C(=O)OCC(=O)N3CCC(C)CC3)ccc2Cl)c(=O)n(-c2ccccc2)n1C,17
CNC(=S)N1N=C(c2ccc(Br)cc2)CC1c1ccc(N(C)C)cc1 (configuration not stated),4
COC(=O)CSc1nc(C)cc(N2CCOCC2)n1,9
O=S(=O)(Nc1cccc2ccccc12)c1ccccc1,24
N/C(=N\OC(=O)CCCC(=O)O)c1ncc(C(F)(F)F)cc1Cl,19
COc1ccc(CNC(=O)C(=O)NC2CCC(C)CC2)cc1 (configuration not stated),1
CCC1CN(C)C2Cc3c([nH]c4ccccc34)C(=O)CC1C2C(=O)OC (configuration not stated),15
COc1ccc(S(=O)(=O)Nc2nc3c(s2)CCCC3)cc1,13
CNC(=O)c1cc(NC(=O)CCn2nc(-c3ccc(C)cc3)c3ccccc3c2=O)ccc1OC,23
Cc1ccc(N(Cc2ccccc2F)S(C)(=O)=O)c(C)c1,15
CCc1ccc(/C=C2\SC(=S)N(CCC(=O)Nc3cc(C)on3)C2=O)cc1,0
O=C(NN/C(=N/S(=O)(=O)c1ccc(Cl)cc1)c1ccccc1)c1ccc(O)cc1,4
Cc1cc(N(C)/N=C/c2ccccc2)nc(-c2ccccc2O)n1,6
Cc1ccc(C(=O)/C=C2\NCCNC2=O)cc1,18
CCN1C(=O)CC(NCc2ccc(S(N)(=O)=O)cc2)C1=O (configuration not stated),27
Clc1ccccc1Sc1ccc(-c2ccccn2)s1,12
O=C(N/C(=C/c1ccccc1)C(=O)N1CCOCC1)c1ccc([N+](=O)[O-])cc1,10
OCCC1CN(Cc2cccn2-c2cccnc2)CCN1Cc1ccc(F)cc1 (configuration not stated),7
CN(C)CCCC1(O)c2ccccc2CCc2ccccc21,4
CC(C)C(c1nnnn1Cc1ccco1)N1CCC(C(N)=O)CC1 (configuration not stated),8
CCOC(=O)c1cc(-c2ccc(F)cc2)n(CCC(=O)NC2CCN(Cc3ccccc3)CC2)c1C,14
CC(CN1CCOCC1)OC(=O)CCc1ccccc1 (configuration not stated),6

# Arranged by length of the SMILES (falling): 3 of the compounds above
SMILES,Calb biofilm kill
CNC(=O)c1cc(NC(=O)CCn2nc(-c3ccc(C)cc3)c3ccccc3c2=O)ccc1OC,23
Cc1cc(N(C)/N=C/c2ccccc2)nc(-c2ccccc2O)n1,6
CN(C)CCCC1(O)c2ccccc2CCc2ccccc21,4

# More compounds follow:
SMILES,Calb biofilm kill
CCc1c(C)nc(SCC(=O)NNC(=O)Cc2ccc(OC)cc2)[nH]c1=O,25
Cc1nc(C)c(-c2ccn(C(=O)NC(C)C)n2)s1,19
CCc1ccc(N(CC)C(=O)c2ccc3c(Cl)c4c(nc3c2)CCC4)cc1,8
COc1cccc(C(=O)N2CCN(C(=O)Cc3ccccc3)CC2)c1,15
CCCOc1c(Br)cc(C2C3=C(CCCC3=O)N(C)C3=C2C(=O)CCC3)cc1OC,13
O=C(NCCCO)/C(=C\c1cn(-c2ccccc2)nc1-c1cccnc1)NC(=O)c1ccccc1,6
COc1ccc(NC2=NCC(Cc3ccc(Br)cc3)S2)cc1 (configuration not stated),5
NC(=O)CSc1nnc(-c2ccc(O)cc2)n1Cc1ccco1,3
Cc1cc(C)n2nc(C(=O)Nc3ccc(S(=O)(=O)N(C)C)cc3)nc2n1,16
CN(C)/C=C1/Oc2c(ccc3ccccc23)C1=O,12
CCOC(=O)Cc1cc(C)[nH]c1C(=O)OCC,23
CC/C(=C(/CC)c1ccc(O)cc1)c1ccc(O)cc1,9
CCC(=O)c1cc2c(C)cc(=O)oc2c(C)c1OC(=O)C(C)C,3
COc1cccc(C2C3=C(CC(C)(C)CC3=O)Nc3cc(OC)c(OC)cc32)c1 (configuration not stated),11
COC(=O)Cn1c(=O)c2c(n(Cc3ccccc3)c1=O)N/C(=C/c1ccc(OC)cc1)C2=O,14

# As a short view, some entries already given.
SMILES,Calb biofilm kill
CCc1c(C)nc(SCC(=O)NNC(=O)Cc2ccc(OC)cc2)[nH]c1=O,25
Cc1nc(C)c(-c2ccn(C(=O)NC(C)C)n2)s1,19
CCc1ccc(N(CC)C(=O)c2ccc3c(Cl)c4c(nc3c2)CCC4)cc1,8
COc1cccc(C(=O)N2CCN(C(=O)Cc3ccccc3)CC2)c1,15
CCCOc1c(Br)cc(C2C3=C(CCCC3=O)N(C)C3=C2C(=O)CCC3)cc1OC,13
O=C(NCCCO)/C(=C\c1cn(-c2ccccc2)nc1-c1cccnc1)NC(=O)c1ccccc1,6
COc1ccc(NC2=NCC(Cc3ccc(Br)cc3)S2)cc1 (configuration not stated),5

# (cont.)
SMILES,Calb biofilm kill
O=c1c2c3c(sc2nc2n1CCC2)CCCCC3,6
CCCC(=O)Nc1ccc(C(=O)NCc2ccccc2Cl)cc1,5
Cc1c(CN2CCCC(C)C2)c(O)n(CCO)c(=O)c1C#N (configuration not stated),16
CCC(OC(=O)c1nsc(Cl)c1Cl)C(=O)NC(C)(C)C (configuration not stated),11
CN1CCN(NS(=O)(=O)c2ccc(Cl)s2)CC1,11
O=C(NCc1cccnc1)c1ccc(COc2ccccc2Br)cc1,11
O=C(CCn1cnc2ccccc2c1=O)Nc1cccc(Cl)c1Cl,11
COc1cccc(C(=O)NCC(=O)N/N=C/c2cccc(OC(=O)c3ccc([N+](=O)[O-])cc3)c2)c1,21
Cc1ccc(OCC(=O)Nc2ccccc2Sc2ccc(Cl)cc2)c([N+](=O)[O-])n1,-8
COc1ccc(-c2onc3ccc(Br)cc23)cc1,26
CCC(CC)C(=O)NN(C(=O)c1ccncc1)C1CC(=O)N(c2ccccc2)C1=O (configuration not stated),10
NNC(=O)c1ccc2ccccc2n1,13
CN(C)S(=O)(=O)c1cccc(NC(=O)c2cc3c(=O)n4ccccc4nc3s2)c1,10
CC(C)C(=O)NNC(=O)CSc1nnnn1C(C)C,11
C/C(=N\Nc1cccc([N+](=O)[O-])c1)c1cc2ccccc2o1,6
Cc1ccc(Cc2nnc3n(-c4cccc(C)c4)nc(C(=O)c4ccccc4)n3c2=O)cc1,13
COc1ccccc1-c1nnc(SC2CCc3ccccc3NC2=O)s1 (configuration not stated),14
CCOC(=O)c1cccc(NC(=O)Nc2ccc(OCC)cc2)c1,8
Cc1ccc2c(=O)c(C(=O)NCc3cccs3)c[nH]c2c1,10
COC(=O)C1=C(C(=O)OC)[C@@H]2N(C)c3ccccc3[C@@]23C[C@@H](CO)N(C(=O)NCCBr)C3=N1,24
Cc1noc(NS(=O)(=O)c2ccc(NC(=O)CCCOc3ccc(Cl)cc3Cl)cc2)c1C,11
O=c1[nH][nH]c2cc(=O)n(-c3ccc(Cl)cc3)nc12,14
COCc1cc(=O)[nH]c(=S)[nH]1,-2
Cc1ccc(N2CCN(CCCCN3C(=O)C4CCCN4C3=O)CC2)cc1 (configuration not stated),6
COc1ccc2c(c1)CCc1cn3nc(C)cc3nc1-2,15
O=C(CN1CCc2ccccc2C1)Nc1ccc(F)cc1F,8
COc1ccc(CCNCC(O)COc2cccc(Br)c2)cc1 (configuration not stated),22
O=C(COC(=O)c1ccc([N+](=O)[O-])s1)NCc1ccccc1,11
CC(=O)Nc1ccc(S(=O)(=O)NCC(=O)OC(C)c2ccccc2Cl)cc1 (configuration not stated),5
Clc1ccc(Cc2nnc(-c3cccs3)o2)cc1,14
CCOC(=O)C1CCCN(C(=O)c2ccc(Cl)c(S(=O)(=O)N3CCCCC3)c2)C1 (configuration not stated),10
COC(=O)/C(=C/c1cccnc1)NC(=O)c1ccccc1,11
COC(C[C@H](O)C[C@@H](O)COCc1ccccc1)OC,16
CCc1ccc(/C=C2\SC(=S)N(CCCC(=O)Nc3nccs3)C2=O)cc1,11
O=C(NC(=S)NNC(=O)[C@H]1C[C@@H]1c1ccccc1)c1cccc(F)c1,18
COc1ccc(-c2nc(-c3cccnc3)no2)cc1OC,9
C=CCN1C(=O)S/C(=C/c2ccc(Sc3nc4ccccc4[nH]3)o2)C1=O,6
CCS(=O)(=O)c1nn2c(N)c(/C=C3/C=CC(=O)C(OC)=C3)c(=O)nc2s1,18
O=C(c1ccc2ccccc2n1)N1CCN(c2ccccc2Cl)CC1,10
S=C(NCCc1ccccc1)NCCc1ccccc1,-2
CCOc1cc(NC(=O)CCl)c(OCC)cc1NC(=O)CCl,22
NS(=O)(=O)c1ccc(CCN2C(=O)/C(=C\c3ccc(Cl)cc3)SC2=S)cc1,13
CC(C)OP(=O)(OC(C)C)C(NC(=O)c1ccccc1Br)C(N)=O (configuration not stated),22

# Screens deposited in PubChem BioAssay by PCMD.
